Bioassay records as filed in PubChem.
RVFV N-RNA FP = blocks Rift Valley Fever Virus nucleoprotein binding to RNA | P21700 | RVFV N-RNA binding, fluorescence polarization; active compounds read low | % bound, % (no concentration beside the values) | hit rate 0.1% among 20,000 | AID 651828;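 active = between 0 and 58% in either replicate with normal brightness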;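 also: 100 nL library stock added to about 12 µL; 100% = protein and probe without compound and 0% = probe alone; numbers are from one replicate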
Target sequence (P21700 whole entry, looked up): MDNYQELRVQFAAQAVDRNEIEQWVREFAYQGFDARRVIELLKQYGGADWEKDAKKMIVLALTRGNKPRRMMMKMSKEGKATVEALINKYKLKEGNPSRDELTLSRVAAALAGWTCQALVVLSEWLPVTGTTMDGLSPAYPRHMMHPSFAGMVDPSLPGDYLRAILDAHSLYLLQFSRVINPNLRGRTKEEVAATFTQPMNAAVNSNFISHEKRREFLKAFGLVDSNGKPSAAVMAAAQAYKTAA
The depositor's hits bear a star; & = joins results of further samples. Not all compounds are listed (hit frequency here may not be typical).

mol	RVFV N-RNA FP
Cc1cc(C)c(C#N)c(SCC(O)CS(=O)c2ccc(C(C)(C)C)cc2)n1 (configuration not stated)	101
Cc1ccc(C)c(C(=O)NC2CCCCC2)c1	98
O=C(O)CN1C(=O)/C(=C2/OC(=O)c3ccccc32)SC1=S	95
CC(c1ccccc1)N1C(=O)CC(Sc2ncccc2C(=O)O)C1=O (configuration not stated)	96
COc1cc2c(cc1OC)[C@@]13CCN4CC5=CCO[C@H]6CC(=O)N2[C@H]1[C@H]6[C@H]5C[C@H]43	90
Cc1ncc(CSSCc2cnc(C)c(O)c2CO)c(CO)c1O	108
Cc1nnsc1-c1noc(CS(=O)(=O)c2ccc(Cl)cc2)n1	93
Cc1ccc(-c2cn3c(=S)[nH]nc3s2)cc1	96
CN(C)c1oc(COc2ccc(F)cc2)nc1C#N	98
CN(C)CCS(C)(=O)=O	99
O=C1/C(=C/c2cccnc2)SC(=S)N1C1CCCC1	92
CCN1C(=O)c2ccc(C(=O)Nc3nccs3)cc2C1=O	81
Cc1ccc(CN2CCN(N=Cc3ccccc3O)CC2)c(C)c1	114
O=C(c1cccc(C(F)(F)F)c1)N1CCCc2ccccc21	90
CCOC(=O)CSc1n[nH]c(CC)n1	78
CS(=O)(=O)CCNCc1ccc(-c2ccc3ncnc(Nc4ccc(OCc5cccc(F)c5)c(Cl)c4)c3c2)o1	93
Cc1ccc(C(C)C)cc1S(=O)(=O)NCc1ccc2c(c1)OCO2	92
C=CCN(CC=C)S(=O)(=O)Cc1ccc(Cl)cc1	105
Cc1cccn2cc(CNC(=O)COc3ccccc3)nc12	89
CC(C)(O)C(=O)/C=C/c1ccc2c(c1)OCO2	93
N/C(=N\O)c1cnn2c(C(F)(F)F)cc(C(F)(F)F)nc12	94
Cc1ccc(C)c2[nH]c(=O)c(CCNC(=O)C3CCCC3)cc12	99
Cc1cc(N2CCN(c3ccccc3)CC2)n2c(nc3ccccc32)c1C#N	103
CCOC(=O)c1nn(-c2ccc(F)cc2)c(=O)c2c(NC(=O)c3ccc(Br)o3)scc12	100
S=c1[nH]ncn1NCc1cccc(Br)c1	102
O=c1[nH]c(CSc2nnc(CCCOc3ccc(Cl)cc3Cl)o2)nc2ccccc12	98
CNC(=O)Oc1ccccc1OC(C)C	103
O=C1CCN(Cc2ccccc2)C(=O)N1c1ccc2c(c1)CCO2	95
FC(F)(F)c1cccc(-c2noc(-c3ccccn3)n2)c1	97
CCOC(=O)c1cn[nH]c1NC(=S)NCc1ccccc1	98
Cc1cc(C)cc(OCc2ccc(C(=O)O)o2)c1	92
COc1ccc(O)cc1	99
O=C(CCCN1C(=O)/C(=C\c2ccco2)SC1=S)N1CCCCC1	97
S=C1NCc2ccsc2S1	102
COc1ccc(CCNC(=O)c2cnn(-c3ccc(C)c(C)c3)c2NC(=O)c2ccco2)cc1OC	96
O=C(c1ccco1)N1CCN(C(=S)Nc2ccc(S(=O)(=O)Nc3ncccn3)cc2)CC1	94
O=C(NCCN1CCNC1=O)Nc1cccc2ccccc12	108
O=C(Cn1cnc2ccccc2c1=O)c1cccs1	92
N=C1/C(=C/c2ccco2)C(=O)N=C2SC=C(c3ccccc3)N12	93
OC(COCc1ccccc1)Cn1cnc2ccccc21 (configuration not stated)	104
Cc1cc(-n2nc3ccccc3n2)c2oc(SCc3nnc(-c4ccccc4)o3)nc2c1	93
CCN(CC)CCNc1ccc(C(F)(F)F)cn1	100
COc1ccc(OC)c(-c2cn(S(=O)(=O)c3ccccc3)nc2N)c1	98
O=C(c1ccccc1)c1ccccc1C(=O)N1CCN(c2ccccc2)CC1	95
Cc1cc(C)n(-c2ccc(N/N=C(/C#N)S(C)(=O)=O)cc2)n1	87
CN(C)C(=O)NC1CC(=O)N(c2ccc3c(c2)OCCO3)C1 (configuration not stated)	94
COc1ccccc1NS(=O)(=O)c1cccc(C(F)(F)F)c1	96
COc1ccc(OC)c(CNc2ccc3c(c2)CCC3)c1	100
CC(CCC(N)=O)C(=O)c1ccccc1 (configuration not stated)	90
Cc1nnc2c3ccccc3c(-c3ccc(O)cc3)nn12	105
O=c1n(Cc2ccc(Cl)cc2)c2sc3c(c2c2ncnn12)CCCC3	96
C[C@@H]1O[C@H](C[N+](C)(C)C)C[C@H]1O	94
CCOC(=O)Cn1cc(/C=C2/C(=O)NC(=S)N(Cc3ccco3)C2=O)c2ccccc21	98
CN(Cc1ccccc1)C1CC(=O)N(c2ccccc2)C1=O (configuration not stated)	98
Cn1/c(=N\N=C2CCCCC2)sc2ccccc21	99
Cc1ccc2oc(Nc3nc(-c4ccccc4)cc(=O)[nH]3)nc2c1	93
O=C(NCC1CCCO1)c1ccc(N2CCCCS2(=O)=O)cc1 (configuration not stated)	102
CCOC(=O)N1CCN=C1SCc1ccc(C(F)(F)F)cc1	94
CC(C)(C)CNC(=O)c1ccccc1O	93
Cc1ccc(-c2cn3c4c(sc3n2)CCCC4)cc1	94

Fetched by compound from above (eight):
mol	RVFV N-RNA FP
S=C1NCc2ccsc2S1	102
Cc1ccc(-c2cn3c4c(sc3n2)CCCC4)cc1	94
O=C(NCCN1CCNC1=O)Nc1cccc2ccccc12	108
CC(CCC(N)=O)C(=O)c1ccccc1 (configuration not stated)	90
OC(COCc1ccccc1)Cn1cnc2ccccc21 (configuration not stated)	104
O=C(NCC1CCCO1)c1ccc(N2CCCCS2(=O)=O)cc1 (configuration not stated)	102
CCOC(=O)N1CCN=C1SCc1ccc(C(F)(F)F)cc1	94
CCOC(=O)Cn1cc(/C=C2/C(=O)NC(=S)N(Cc3ccco3)C2=O)c2ccccc21	98

Next part:
mol	RVFV N-RNA FP
COc1cc2ncnc(NC(C)c3ccccc3)c2cc1OC (configuration not stated)	94
COc1ccc(OC)c(/C=N/NC(=O)Cc2nc3ccccc3[nH]2)c1	91
Cc1ccc(-n2nc(CN3CCOCC3)c(-c3ccccc3)c2N)c(C)c1	96
CC1=CC(=C2C(=O)c3ccccc3C2=O)C=C(C)N1C(C)C	95
S=C(Nc1ccc(Cl)cc1)NN1CCOCC1	96
CC1CCc2sc(NC(=O)C3CC3)c(C#N)c2C1 (configuration not stated)	91
N#C/C(C(=O)N1CCCCC1)=C1/SC=C(c2ccccc2)N1c1ccccc1	94
CCOc1ccc(C(=O)Nc2ccc3c(c2)C(=O)N(C)C3=O)cc1	97
CCCn1c(SCC(=O)Nc2cccc(CC)c2)nc2c(oc3ccccc32)c1=O	92
O=C(c1ccc(OCCCc2cnc[nH]2)cc1)C1CC1	94
O=C(Cc1ccc(F)cc1)NC1CCSC1=O (configuration not stated)	85
CCNc1nc(NCC)nc(OCC#N)n1	100
c1csc(CN2CCCCCC2)c1	91
CCCc1cc(=O)n(CC(=O)Nc2ccccc2)c(-n2nc(C)cc2C)n1	97
CNC(=S)N/N=C1\CCOc2ccc3ccccc3c21	92
CCN1CC2=C(OC(N)=C(C#N)C2c2ccc(OC)cc2)/C(=C\c2ccc(OC)cc2)C1 (configuration not stated)	80
C=CCNC(=S)N1CCc2cc(OC)c(OC)cc2C1	92
COc1cccc(NC(=O)c2ccc(COc3ccc(Cl)cc3)o2)c1	113
CS(=O)(=O)N1CCC(c2nc3ccccc3[nH]2)CC1	106
Nc1n[nH]c2c1CSc1ccc(Cl)cc1-2	87
N#Cc1ccc(C2NC(=O)c3ccccc3N2)cc1 (configuration not stated)	93
N#CCSc1nc(-c2ccccc2)cs1	99
CSc1ccc(C2C3=C(CCCC3=O)NC3=C2C(=O)CCC3)cc1	98
Cc1cc(C(=O)O/N=C(\N)c2cc(C)on2)no1	94
c1ccc2sc(SCc3cn4ccsc4n3)nc2c1	104
CCc1nc2c(cnn2-c2ccccc2)c(=O)n1-c1ccc(C)cc1	99
O=c1[nH]oc2nc(C3CC3)cc(C(F)(F)F)c12	97
Clc1ccc(C=NC23CN4CN(CN(C4)C2)C3)cc1	101
O=C(Nc1ccc(S(=O)(=O)N2CCCCCC2)cc1)c1ccncc1	99
S=c1[nH]nc(/N=C/c2ccc(Br)cc2)n1Cc1ccccc1	97
CCOC(=O)N1CCC(=C2c3ccc(Cl)cc3CCc3cccnc32)CC1	100&97&96
CCOC(=O)c1nnn(-c2nonc2-n2cccc2)c1C	93
Cc1cc(C(=O)NCCCn2ccnc2)cs1	91
O=c1cc(CN2CCCCC2)c2cc(O)ccc2o1	93
O=C(O)/C=C\C(=O)NCc1cccs1	85
O=c1c[n+]([O-])c2ccccc2n1OCc1c(F)cccc1F	98
O=C(NCc1nnc(SCC(=O)N2CCc3ccccc32)o1)c1ccccc1	98
Cc1onc(-c2ccccc2)c1C(=O)NCCN1CCNC1=O	92
CCOC(=O)c1cccc(NC(=O)C2CCCCC2)c1	95
O=C(Nc1ccccc1C(F)(F)F)N1CCCCCC1	100
COCc1c(C(C)C)nc(C(C)C)c(/C=C/[C@@H](O)C[C@@H](O)CC(=O)O)c1-c1ccc(F)cc1	98&92
CC(NC(=O)Nc1ccccc1)c1ccccc1 (configuration not stated)	97
O=C(CN1C(=O)COc2ccccc21)NCc1ccco1	89
O=C(CSc1ncnc2c1nnn2Cc1ccccc1)OCc1ccccc1	92
CCOc1ccc2c(c1)=C(c1sc(N)nc1O)C(=O)N=2	100
OC[C@H]1NC[C@@H](O)[C@@H]1O	96
COc1ccc2c(c[n+](C)c3c4cc5c(cc4ccc23)OCO5)c1OC	108&85
COc1ccc(N2CCN(CCCNC(=O)Nc3ccccc3)CC2)cc1	97
CN1CCC(NC(=O)c2cccc(C(F)(F)F)c2)CC1	93
Cc1ccc(-c2cc(-c3ccccc3)c(C#N)c(S(=O)Cc3ccccc3)n2)cc1 (configuration not stated)	101
CCOC(=O)N1CCN(C(=O)CSc2nc3c([nH]c4ccccc43)c(=O)n2-c2ccc(OCC)cc2)CC1	98
CCN(CCO)C(=O)Cc1cc(=O)[nH]c(=O)[nH]1	96
COc1ccc(OCC(=O)N2CCOCC2)cc1	102
CCOC(=O)c1cc(NC(=O)c2ccc3c(c2)OCO3)cc(C(=O)OCC)c1	82
Cc1cc(NC(=O)CS(=O)(=O)c2cn(Cc3ccccc3Cl)c3ccccc23)no1	96
C/C=C/C(=O)NC(C)c1ccccc1 (configuration not stated)	97
O=C(Nc1ccccc1C(=O)OCc1c(F)cccc1Cl)c1ccco1	94
CCS(=O)(=O)Nc1ccc(C(=O)Nc2cc(C)ccc2OC)cc1	97
CC(O)(P(=O)(O)O)P(=O)(O)O	94
O=c1c(-c2ccc(O)cc2)coc2cc(O)cc(O)c12	95

Remaining list, next part.
mol	RVFV N-RNA FP
Nc1cc(Cl)ccn1	95
CCn1c(CC(=O)Nc2ccccc2C)nnc1SCC(=O)N1CCN(c2ccccc2)CC1	99
COC(=O)c1ccccc1NS(=O)(=O)c1cc2c3c(c1)C(C)C(=O)N3CCC2 (configuration not stated)	97
CC(=O)Nc1ccc(NC(=O)c2ccc(-c3ccc(Cl)cc3Cl)o2)cc1	96
CSCCNC(=O)Nc1c(-c2c(Cl)cccc2Cl)noc1C	95
O=C(O)c1cccc(N=Nc2sc3ccccc3c2O)c1	92
CCOC(=O)c1c(CS(=O)Cc2ccc(Cl)cc2)oc2c(F)c(F)c(F)c(F)c12 (configuration not stated)	94
Cc1ccc(Cl)cc1N/C=C/C(=O)C(C)(C)C	93
CCOC(=O)C1C(=O)OC(C)(C)C1C(=O)OCC (configuration not stated)	97
O=C1CCCN1CN(C(=O)c1ccccc1)c1cccc(Cl)c1	97
COc1ccc(-c2noc(CN(C)C(=O)c3ccccc3)n2)cc1	100
O=S(=O)(NCC1CCCO1)c1ccc2ccccc2c1 (configuration not stated)	99
O=C(/C=C(\O)c1ccccc1)C(=O)Nc1ccccn1	94
CC(C)C(=O)N(Cc1ccccn1)c1nc2ccccc2s1	99
Cn1c(=NC(=O)CSCC(=O)N2CCN(c3ccccc3)CC2)sc2ccccc21	88
N#Cc1nc(Cc2ccccc2)oc1N1CCC(Cc2ccccc2)CC1	101
C#CC(/C=C/C)OC(=O)c1ccccc1C(=O)O (configuration not stated)	95
CCCCCCCCc1ccc(-c2ccc(C(=O)O)cc2)cc1	94
Fc1ccc2nc(N3CCc4ccccc4C3)sc2c1	96
CC(=O)N(Cc1ccccc1C)c1cccc(C)c1C	92
COc1ccc(-c2n[nH]c(=S)n2/N=C/c2cccc(OC)c2O)cc1	103
Cc1ccc(N2CCN(C(=O)c3cccs3)CC2)cc1C	94
Cc1csc2ncc(C(=O)N(C)Cc3ccccc3)c(=O)n12	96
O=S(=O)(NCc1cc(F)cc2c1OCOC2)c1ccc(N2CCOCC2)nc1	111
CC(NS(=O)(=O)c1ccccc1)C(N)=O (configuration not stated)	106
CCOC(=O)Cn1c(=NC(=O)C2COc3ccccc3O2)sc2cc(S(N)(=O)=O)ccc21 (configuration not stated)	98
O=C(CN1CCN(CCCc2c[nH]c3ccc(F)cc23)CC1)c1ccc(F)cc1	94
NC(=O)C1CCN(CC2CC3C=CC2C3)CC1 (configuration not stated)	97
COc1ccc(OCC(O)CNS(=O)(=O)c2cccc(Cl)c2)cc1 (configuration not stated)	92
COc1ccccc1CC(=O)Nc1ccc(-c2nnc(-c3ccccc3)o2)cc1	97

Shown as labelled records: three of the compounds above.
CCCCCCCCc1ccc(-c2ccc(C(=O)O)cc2)cc1
  RVFV N-RNA FP: 94

Fc1ccc2nc(N3CCc4ccccc4C3)sc2c1
  RVFV N-RNA FP: 96

CC(=O)N(Cc1ccccc1C)c1cccc(C)c1C
  RVFV N-RNA FP: 92
